Lassa entry inh: qHTS for Inhibitors of binding or entry into cells for Lassa Virus. Lassa virus pseudotype entry inhibition, cell reporter; control for the full effect not named in the record. Potency, µM (doses to about 37.9 µM), for inactives: top-dose activity change, negative = inhibition, usual class: inhibitors. 300,000 tested, 1.2% active; active means well fitted inhibition curve with a large enough effect; inconclusive means small, poorly fitted or top-dose-only effect, or effect the other way; inactive means flat fitted curve, though single readings scatter; tested in HEK293 cells; also: % is scaled to controls: 0 for no effect and ±100 for the full control effect; nearly all actives have a fitted effect of over 50% in size; luciferase read-out
StopGo reporter: High Throughput Screening for Foot and Mouth Disease Virus Antivirals. human cells with a luciferase reporter of 2A StopGo recoding; control for the full effect not named in the record. Potency, µM (highest dose often 57.9 µM), without a hit: at the highest dose signal change, negative = less light. 410,000 tested, 1.2% active. AID 1159524, 2015; active = well fitted falling curve with a large enough effect; inconclusive = small, poorly fitted or top-dose-only effect; inactive = no such curve, though single readings can be large or run the other way; tested in HEK293T cells; also: % is scaled to controls: 0 for no effect and ±100 for the full control effect; nearly all actives have a fitted effect of over 45% in size; luciferase light after 4 h
RE007 growth inh: qHTS Assay for Inhibitors of the HIV-1 protein Vpr; S. pombe RE007 Vpr strain, BacTiter-Glo ATP luminescence, 24 h; control for the full effect not named in the record; Potency, µM (series often up to 92.2 µM), without a hit: at the top dose activity change, negative = less growth; 360,000 tested, 0.21% active; AID 651644, 2012; active = well fitted falling curve with a large enough effect; inconclusive = small, poorly fitted or top-dose-only effect; inactive = no such curve, though single readings can be large or run the other way;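 also: % is scaled to controls: 0 for no effect and ±100 for the full control effect; nearly all actives have a fitted effect of over 50% in size; the assay follows cell death caused by Vpr and the record does not say whether a fall means rescue or toxicity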
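Fission yeast strain RE007, carrying one chromosomally integrated HIV-1 vpr copy, was seeded at OD 0.01 in PMG+AL medium with 23 nL pinned compound. After 24 h at 30 °C and 99% humidity, viability was read by BacTiter-Glo luminescence.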
Cruzain Triton: qHTS Assay for Promiscuous and Specific Inhibitors of Cruzain (with detergent); AID 1478, 2009; 200,000 tested, 0.43% active; Potency, µM, without a hit: max response, negative = inhibition, hits mostly inhibitors; Cruzipain (Trypanosoma cruzi), P25779; purified cruzain, Z-FR-AMC fluorescence, 0.01% Triton; active = well fitted curve in the direction sought with a large enough effect; inconclusive = small, poorly fitted or top-dose-only effect, or another doubt; inactive = no such curve, though single readings can be large; an effect the other way counts as inactive or inconclusive;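 also: plate controls were neutral wells for no effect and buffer without enzyme for full effect; nearly all actives have a fitted effect of over 40% in size; top concentration of the series not given in the record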
Target sequence (P25779 123-467 limits assumed): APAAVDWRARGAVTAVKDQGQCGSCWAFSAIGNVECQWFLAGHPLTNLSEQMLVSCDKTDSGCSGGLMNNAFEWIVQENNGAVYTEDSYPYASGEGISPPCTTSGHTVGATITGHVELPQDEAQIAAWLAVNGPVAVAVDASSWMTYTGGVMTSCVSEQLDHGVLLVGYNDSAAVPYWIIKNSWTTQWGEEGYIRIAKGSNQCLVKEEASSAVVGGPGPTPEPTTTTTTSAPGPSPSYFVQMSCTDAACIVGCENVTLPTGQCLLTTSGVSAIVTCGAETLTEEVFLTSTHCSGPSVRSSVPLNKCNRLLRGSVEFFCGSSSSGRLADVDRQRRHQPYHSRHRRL
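Steps: dispense cruzain (1.5 nM final) in acetate buffer pH 5.5 with DTT and 0.01% Triton X-100; pin-transfer compounds; incubate 15 min RT; add Z-FR-AMC (2 uM final); read fluorescence every 30 s, using the 60 s intensity change.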
Cruzain noTriton: qHTS Assay for Promiscuous and Specific Inhibitors of Cruzain (without detergent); purified cruzain, Z-FR-AMC fluorescence, no detergent; 200,000 tested, 2.3% active; Cruzipain (Trypanosoma cruzi), P25779; AID 1476, 2009; Potency, µM, inactives show max response, negative = inhibition, actives largely listed as inhibitors; active = well fitted curve in the direction sought with a large enough effect; inconclusive = small, poorly fitted or top-dose-only effect, or another doubt; inactive = no such curve, though single readings can be large; an effect the other way counts as inactive or inconclusive;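 also: plate controls were enzyme without inhibitor for no effect and buffer without enzyme for full effect; nearly all actives have a fitted effect of over 40% in size; top concentration of the series not given in the record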
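Detergent-free condition (0.00005% Triton X-100) in acetate buffer pH 5.5 with DTT. 1.5 nM enzyme and compound were pre-mixed 15 min, then 2 uM Z-FR-AMC substrate added; reaction progress from fluorescence change between first and third reads (60 s).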
MARV entry inh: qHTS for inhibitors of binding or entry into cells for Marburg Virus; Marburg virus pseudotyped entry inhibition, cell reporter; control for the full effect not named in the record; about a third of the inactives were read at about 46 µM; Potency, µM (top dose mostly 37.8 µM), for the others: at the highest dose activity change, negative = inhibition, usual class: inhibitors; 300,000 tested, 1.8% active; AID 540276, 2011; active = well fitted inhibition curve with a large enough effect; inconclusive = small, poorly fitted or top-dose-only effect, or effect the other way; inactive = flat fitted curve, though single readings scatter; tested in HEK293 cells; about a fifth of its hits are not listed in these tables; also: % is scaled to controls: 0 for no effect and ±100 for the full control effect; luciferase read-out
NS1 inh: qHTS Assay for Inhibitors of Influenza NS1 Protein Function; Potency, µM (doses to about 46.1 µM), without a hit: at the top dose activity, positive = more growth; S. cerevisiae slowed by influenza A NS1, growth recovery by OD600; 270,000 tested, 0.4% active; AID 2326, 2010; also: actives are rising curves; nearly all actives have a fitted effect of over 50% in size
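A cell-based growth assay was used: compounds that relieve NS1-induced slow growth of budding yeast raise OD600. Assay medium was yeast nitrogen base with ammonium sulphate and -URA supplement, pH 6.0, with 2% galactose.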
SARS PLpro yeast: qHTS of Yeast-based Assay for SARS-CoV PLP | S. cerevisiae expressing SARS-CoV PLpro, growth rescue; control for the full effect not named in the record | Potency, µM (top dose mostly 32.9 µM), without a hit: top-dose activity, positive = growth rescue | 330,000 tested, 0.19% active | AID 485353, 2010; also: 0% is about no effect; nearly all actives have a fitted effect of over 55% in size; growth read by luminescence after 48 h
* = called active by the depositor; i = inactive; u = inconclusive; x = not tested or not shown; & = joins results of further samples; [ ] = dose if it differs, or a comment. Unless noted, calls follow the shape of the dose curve; as a rule, active means well fitted rising curve with a large enough effect; inconclusive means small, poorly fitted or top-dose-only effect; inactive means no such curve, though single readings can be large or run the other way. Potency is read from the fitted curve at half-maximal effect.

SMILES | Lassa entry inh | StopGo reporter | RE007 growth inh | Cruzain Triton | Cruzain noTriton | MARV entry inh | NS1 inh | SARS PLpro yeast
CC(C)(C)C(=O)Nc1ccc(C(=O)Nc2cc(NC(=O)c3ccc(NC(=O)C(C)(C)C)cc3)cc(C(=O)O)c2)cc1 | 19% | 42%[activator] | -10% | x | x | 28% | u | 1%
CCn1c2ccccc2c2cc(N=C3SC(CC(=O)Nc4ccccc4OC)C(=O)N3C)ccc21 (stereo not drawn) | -7% | -18% | -5% | 3.4% | u | u | 4µM* | 0%
CC(=O)c1cccc(CN2CCCC(C(=O)Nc3ccc(-c4ccco4)cc3)C2)c1 (stereo not drawn) | x | 3% | -2% | x | x | x | 15% | -8%
Cc1c(CCNC(=O)c2ccc(C(F)(F)F)cc2)sc2nc(-c3ccc(F)cc3)nn12 | -8%[46.1 µM] | -18% | x | -0.9% | -5% | x | x | x
Cc1c(NC(=O)C(C)OC(=O)c2c3c(nc4ccccc24)CCC3)c(=O)n(-c2ccccc2)n1C (stereo not drawn) | 4% | -7% | -9% | -3.8% | -5% | 23% | 11% | 11%
CCOc1cc(CNn2cnnc2)cc(Br)c1OCC(=O)NC1CCCCC1 | -2% | 28% | 1% | -14% | u | -14% | 6% | 13%
O=S(=O)(NC1CCCCC1NS(=O)(=O)c1ccc(F)cc1)c1ccc(F)cc1 (stereo not drawn) | 0% | x | 7% | 1.2% | -9% | -21% | -20% | 5%
CCOC(=O)c1nc(Nc2ccc(OC)cc2)c2ccccc2n1 | u | -12%&-5% | -1% | -12% | -9% | u | -6% | 0%
O=C(O)CCCNC(=O)c1ccccn1 | -1% | 18% | 11% | 1.0% | -4% | u | -7% | -3%
N#Cc1cc2c(nc1SCc1ccc(Cl)nc1)CCCCC2 | -18% | -13% | -3% | x | x | -37%[46.1 µM] | -83% | -1%
CC[C@@H](NS(=O)(=O)c1ccc(C)cc1)C(=O)Oc1ccc2c3c(c(=O)oc2c1)CCC3 | -11% | -18% | 18% | -15% | 4% | 2% | -28% | -10%
N#Cc1ccc(COc2ccc(CCO)cc2-n2nc3ccccc3n2)cc1 | -27% | -23% | 14% | -4.5% | u | 10% | -11% | -3%
CCCCNC(=O)N(O)C1N(/N=C/c2cccs2)C(=S)SC1(C)C (stereo not drawn) | -3%[46.1 µM] | 30%[activator] | 5% | x | x | u | -6% | -1%
COc1ccccc1C(=O)Nc1c2c(nn1-c1ccc([N+](=O)[O-])cc1)CS(=O)(=O)C2 | 21%[46.1 µM] | -11% | 7% | x | x | 3%[46.1 µM] | -7% | -2%
CC1CCCN(C(=O)CN2C3CCC2CC(O)(c2ccc(F)cc2)C3)C1 (stereo not drawn) | -9% | -13% | -13% | x | x | -17%[46.1 µM] | x | 5%
COc1cccc(NC(=O)CN(C)C(=O)c2cccnc2Sc2ccc(C)c(C)c2)c1 | u | -22% | 3% | x | x | u | x | x
CC12COC3(C(=O)Nc4ccccc4)CC1CCC32C (stereo not drawn) | x | -7% | -5% | x | x | x | -5% | -1%
O=C(Nc1ccccc1)Nc1nnc(-c2ccccc2)s1 | x | 14% | 4% | x | x | x | 4% | 0%
NS(=O)(=O)c1ccc(NC(=O)COC(=O)c2ccc3c(c2)OCCO3)cc1 | u | -13% | 34% | x | x | 19%[46.1 µM] | -3% | 3%
CCOC(=O)c1ccc(NC(=O)CN(c2ccc(C)cc2)S(=O)(=O)c2c(C)noc2C)cc1 | u | -22% | x | -3.4% | -9% | 11µM* | x | x
O=C(c1ccc(COc2c(F)c(F)c(F)c(F)c2F)o1)N1CCOCC1 | -26% | -5% | -9% | -19% | -6% | -24% | 2% | -6%
Fc1ccc(NCc2ccccc2-c2nnc(-c3ccccc3Cl)o2)cc1 | 19%[46.1 µM] | 38%[activator] | x | -6.4% | -11% | 28%[46.1 µM] | x | x
CCOc1ccc(NC(=O)c2ccc(N3CC4CC(C3)c3cccc(=O)n3C4)c(NC(=O)c3cccnc3)c2)cc1 (stereo not drawn) | x | -1% | -11% | x | x | x | -10% | 2%
CCN1CCCC1CNC(=O)c1cc2cc(OC)c(OC)cc2[nH]1 (stereo not drawn) | x | -12% | 6% | x | x | x | 1% | 0%
N#Cc1ccccc1OCC(=O)Nc1ccc2c(c1)OCCO2 | -12% | 34%[activator] | -41% | x | x | u | x | -3%
COc1ccc(C(c2c(O)ccc3ccccc23)N2CCOCC2)c(OC)c1 (stereo not drawn) | 2% | -1% | -5% | -5.5% | -1% | 4% | -107% | -15%
O=C(NCCN1CCOCC1)c1cc2sccc2n1Cc1ccc(F)cc1 | -2% | u | -1% | 0.6% | 2% | u | -6% | -1%
O=C(c1ccc(Cl)cc1)N1CCCC(C(=O)N2CCN(c3ccccc3)CC2)C1 (stereo not drawn) | x | -24% | 3% | x | x | x | 4% | 1%
O=C(CN1CCCCC1)Nc1ccc(Br)cc1[N+](=O)[O-] | -19% | 22% | 3% | x | x | u | 0% | -1%
CCOc1ccccc1N(CC)C(=O)c1ccc2c(=O)n3c(nc2c1)CCCCC3 | -8%[46.1 µM] | -21%&-19% | -3% | -5.4% | u | 8.9µM* | 6% | 2%
COc1ccc(/C=C/C(=O)Nc2ccncc2)cc1OC | 6%[46.1 µM] | -10% | 11% | x | x | -8%[46.1 µM] | -11% | -1%
Cc1ccccc1OCC(=O)Nc1ccc2c(c1)OCO2 | x | 63%[activator] | 8% | 2.2% | -6% | -1% | -11% | -10%
O=[N+]([O-])c1ccc(O)c(/C=N/NC2=NS(=O)(=O)c3ccccc32)c1 | -1%[46.1 µM] | -6% | -9% | x | x | u | x | u
COc1ccc(-c2nn(C)c3sc(C(=O)NCc4ccco4)cc23)cc1OC | 0% | -12% | 8% | 0.5% | -10% | -1% | 21% | 4%
CC1CCN(CCCNC(=O)c2cc(Sc3ccc(F)cc3)nc3ccccc23)CC1 | -23%[46.1 µM] | -17% | x | 1.1% | 6% | x | x | x
COc1cccc(N2CCN(C(=O)c3ccc(CS(=O)Cc4ccc(C)cc4)o3)CC2)c1 (stereo not drawn) | u | -24% | -8% | x | x | 2%[46.1 µM] | 18% | 3%
CN(C)CCN(C(=O)c1ccccc1Cl)c1nc2c(Cl)cccc2s1 | 5% | u | -9% | -5.4% | -4% | -28% | 5% | -22%
COC(=O)c1cc(C#N)c(N2CC(C)OC(C)C2)nc1C (stereo not drawn) | -1% | -4% | 0% | x | x | 0%[46.1 µM] | x | 0%
CCCCN(CCCNC(=O)c1cc(Nc2cccc(SC)c2)nc2ccccc12)Cc1ccccc1 | u | 0% | x | -2.5% | u | -2%[46.1 µM] | x | x
COCCN(C(=S)Nc1cccc(OC)c1)C(C)c1cccs1 (stereo not drawn) | 6% | 21% | 3% | -3.9% | -17% | u | -12% | -3%
CCN(CC)c1ccc(C2C(C(=O)OC(C)C)C(=O)CC(C)(O)C2C(=O)OC(C)C)cc1 (stereo not drawn) | u | u | 12% | 2.1% | -1% | u | -7% | 0%
O=S(=O)(NCCCc1ccccc1)c1ccc(F)c(F)c1 | -19% | -1% | 13% | x | x | -6% | -32% | -1%
CCOc1ccc(Cl)cc1CNCCCSc1ncccn1 | x | -9% | -13% | x | x | x | -9% | 0%
Cc1ccc(NC(=O)c2cc(-c3cc(C)c(C)cc3O)n[nH]2)cc1C | x | -5% | 4% | x | x | x | -2% | 1%
Cc1noc(C)c1S(=O)(=O)N1CCC(C(=O)N2CCN(c3ccc(F)cc3)CC2)CC1 | -15% | u | -17% | 2.3% | u | 1% | -6% | 1%
O=C(NCc1cccs1)c1ccc(N2CCCC2=O)cc1 | 13% | 62%[activator] | 19% | 9.2% | 1% | -29%[46.1 µM] | -15% | -6%
O=C(CSc1nnc(-c2cccs2)n1-c1ccccc1)NCC1CCCO1 (stereo not drawn) | -3% | -12% | -2% | 0.1% | -4% | 13% | -6% | x
O=c1cnnc(Nc2ccccc2F)[nH]1 | 15%[46.1 µM] | -11% | 4% | x | x | -2% | -4% | 2%
C#CCOCCOCCOCCNc1nc(N2CCN(C(=O)C([C@@H](C)CC)n3cc(C(N)CC(C)C)nn3)CC2)nc(N2CCN(C(=O)[C@H](CCC(=O)O)n3cc(C(N)CC(C)C)nn3)CC2)n1 (stereo partly drawn) | x | -12% | -6% | x | x | x | 4% | 1%
O=C(NCc1ccco1)c1sc2cc(Cl)ccc2c1Cl | u | x | u | u | 25µM* | 29% | -8% | -20%
Cc1ccc(-n2nnnc2SC(C)C(=O)Nc2ccc(Cl)cn2)cc1 (stereo not drawn) | 3% | x | i[18.4 µM] | -5.3% | 1% | -10% | -44% | -9%
COc1cc(OC)c(Nc2nc3ccc(C)cc3n3nnnc23)cc1Cl | 13%[46.1 µM] | -3% | x | -2.1% | 6% | x | x | x
COc1ccc(OC)c(NC(=S)N2CCN(C/C=C/c3ccccc3)CC2)c1 | 0% | u | -16% | 2.3% | 2% | -4% | -9% | 1%
O=CN1N=C(c2ccccc2)CC1c1ccc(Cl)cc1 (stereo not drawn) | -26%[46.1 µM] | u | 11% | x | x | u | 5% | x
O=C(CSc1ncnc2c1oc1ccccc12)N1CCCc2ccccc21 | -3% | 1% | 18%[3.69 µM] | -3.8% | -8% | -4% | -26% | -14%

Screening data as filed in PubChem.
